Mtb hypoxia inh: Mtb hypoxia fluorescent reporter inhibition; M. tuberculosis hypoxia-regulated fluorescent reporter, fluorescence; fluorescence inhibition, % (no concentration beside the values); 0.1% of 300,000 active;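 active = 35 to 45% if threefold the growth effect, above 45% if 1.5-fold the growth effect; inactive = the rest, general growth blockers included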;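 also: wells of about 50 µL received 100 nL stock; 0% = vehicle wells and 100% = reference inhibitor wells; whole bacteria with a GFP reporter of the hypoxia response; strong numbers were not always called active; many hits fall short of the cut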
PrP 5UTR inh: suppresses PrP 5' UTR mRNA reporter expression | 0.35% of 340,000 active | AID 488862 | cell-based PrP 5' UTR mRNA reporter, plate reader | inhibition, % (no concentration beside the values);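 active = every replicate at 50% or more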;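 also: 0 = median of the neutral control wells; tested in H4 reporter cells; numbers are from one replicate; inactives centre near -14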
ugtP null kill: compounds lethal to S. aureus RN4220 ugtP deletion mutant; OD600 growth, 16 h; some inactives read as strong as hits; 0.54% of 330,000 active; growth inhibition, % (no concentration beside the values);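 active = z-score under -3 and OD600 up to 0.15 on both plates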;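 also: plate controls were untreated wells for no effect and antibiotic for full effect; wells of about 80 µL received 100 nL stock; the first replicate is given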
Sa RN4220 lethal: kills Staphylococcus aureus RN4220. S. aureus RN4220 growth, OD600, 16 h. inhibition, % (no concentration beside the values). 0.33% of 330,000 active. AID 1259311;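 active = z-score of -3 or lower and OD600 up to 0.18 on both plates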;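 also: plate controls were untreated cells for no effect and reference antibiotic for full effect; stock transfer was 100 nL into about 80 µL; one replicate is shown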
Bead autofluor: flagged as autofluorescent in microsphere protease counterscreen. fluorescence intensity (no concentration beside the values). 3.1% of 360,000 active. compound autofluorescence counterscreen, microsphere flow cytometry; hits give high values. AID 624483;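 active = at least 3 SD above the mean of all compounds, about 16000 in these data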;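 also: 100 nL of 1 mM stock went into each well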
BJeLR viability: kills HRASV12-expressing BJeLR cells. 0.17% of 300,000 active. BJeLR (HRASV12) viability, CellTiter-Glo ATP luminescence, 48 h; reference of the scale not given here. inhibition, % (no concentration beside the values). AID 1554;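 active = replicate mean above 50%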;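 also: 50 nL library stock added to about 25 µL; numbers are from one replicate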
Mtb hypoxia inh growth: also measured in Mtb hypoxia inh; calls as there; growth inhibition, %; measured here: M. tuberculosis growth (absorbance);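 0% = vehicle and 100% = reference antibiotic; read after six days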
* = called active by the depositor; · = no result given.

| structure | Mtb hypoxia inh | Mtb hypoxia inh growth | PrP 5UTR inh | ugtP null kill | Sa RN4220 lethal | Bead autofluor | BJeLR viability |
| --- | --- | --- | --- | --- | --- | --- | --- |
| COc1ccc(OC)c(C=Nc2ccccc2-c2nc3ccccc3[nH]2)c1 | 3 | -1 | -64 | 30 | 3.3 | 1954 | -10 |
| COCCOC1CCN(C(=O)c2ccc(OC)c(OC3CCN(C(C)C)CC3)c2)CC1 | 7 | 0 | 4 | 17 | 4.6 | 5658 | 6 |
| CC[C@H]1C/C=C\Cc2ccccc2[C@@H](C(=O)C[C@@H](O)CC(C)=O)OC1=O | -3 | -2 | -5 | 3 | 8.4 | 2992 | · |
| Cc1cccc(NS(=O)(=O)c2ccc(C(=O)N3CC(C)OC(C)C3)cc2)c1C (stereo not given) | -1 | 3 | -27 | 5 | 2.4 | 5015 | -2 |
| O=C(CCCn1c(=O)oc2ccccc21)Nc1cccnc1 | · | · | -8 | 3 | -0.6 | 5099 | 0 |
| CS(=O)(=O)Oc1ccc2c(c1)O/C(=C\c1cccc([N+](=O)[O-])c1)C2=O | 7 | 8 | -15 | -10 | 3.0 | 3950 | 6 |
| CCOC(=O)N1CCC2(CC1)CC(=O)c1c(ccc3oc(C(=O)O)c(C)c13)O2 | 9 | 12 | -2 | 14 | 6.9 | 3120 | -4 |
| O=C(C=Cc1cccc([N+](=O)[O-])c1)n1cnc2ccccc21 | 4 | 3 | · | 13 | 6.0 | · | · |
| O=S(=O)(N=CN1CCOCC1)c1ccc(Cl)cc1 | 11 | 7 | · | 9 | 5.5 | · | · |
| C=CC[C@]12C=C(OC)C(=O)C=C1O[C@@H](c1ccc3c(c1)OCO3)[C@H]2C | · | · | -6 | 7 | 6.4 | 5540 | -9 |
| [O-][n+]1onc2c1CCc1nnccc1-2 | 9 | 3 | · | 1 | 1.6 | 11035 | -3 |
| O=C(O)CCn1c(=O)n(CCC(=O)O)c(=O)n(CCC(=O)O)c1=O | 5 | -6 | -17 | 6 | 1.9 | 4278 | 1 |
| C=CCOC(=O)C1=C(C)NC(=O)NC1c1ccc(Cl)cc1 (stereo not given) | 4 | 0 | 3 | 1 | 4.2 | 4236 | 1 |
| COc1ccc(CC(NC(C)=O)C(=O)NC2CCN(S(=O)(=O)c3ccc(NC(C)=O)cc3)CC2)cc1OC (stereo not given) | 2 | 0 | -5 | 2 | 2.8 | 3536 | 0 |
| O=C(CSc1ncnc2ccccc12)c1ccc2c(c1)OCCO2 | 6 | 5 | -44 | -2 | 18 | 10294 | 11 |
| COc1ccc(OC2C=CC(c3ccccc3)OC2CON=CCC2C=CC(OC(C)=O)C(COC(C)=O)O2)cc1 (stereo not given) | -1 | 7 | · | 9 | 4.7 | · | · |

Some of the entries so far, with values under each structure.
Results follow in this order: Mtb hypoxia inh	Mtb hypoxia inh growth	PrP 5UTR inh	ugtP null kill	Sa RN4220 lethal	Bead autofluor	BJeLR viability
> COc1ccc(OC)c(C=Nc2ccccc2-c2nc3ccccc3[nH]2)c1
    3	-1	-64	30	3.3	1954	-10
> COCCOC1CCN(C(=O)c2ccc(OC)c(OC3CCN(C(C)C)CC3)c2)CC1
    7	0	4	17	4.6	5658	6
> CC[C@H]1C/C=C\Cc2ccccc2[C@@H](C(=O)C[C@@H](O)CC(C)=O)OC1=O
    -3	-2	-5	3	8.4	2992	·
> Cc1cccc(NS(=O)(=O)c2ccc(C(=O)N3CC(C)OC(C)C3)cc2)c1C (stereo not given)
    -1	3	-27	5	2.4	5015	-2
> O=C(CCCn1c(=O)oc2ccccc21)Nc1cccnc1
    ·	·	-8	3	-0.6	5099	0
> CS(=O)(=O)Oc1ccc2c(c1)O/C(=C\c1cccc([N+](=O)[O-])c1)C2=O
    7	8	-15	-10	3.0	3950	6
> CCOC(=O)N1CCC2(CC1)CC(=O)c1c(ccc3oc(C(=O)O)c(C)c13)O2
    9	12	-2	14	6.9	3120	-4
> O=C(C=Cc1cccc([N+](=O)[O-])c1)n1cnc2ccccc21
    4	3	·	13	6.0	·	·
> O=S(=O)(N=CN1CCOCC1)c1ccc(Cl)cc1
    11	7	·	9	5.5	·	·
> C=CC[C@]12C=C(OC)C(=O)C=C1O[C@@H](c1ccc3c(c1)OCO3)[C@H]2C
    ·	·	-6	7	6.4	5540	-9
> [O-][n+]1onc2c1CCc1nnccc1-2
    9	3	·	1	1.6	11035	-3
> O=C(O)CCn1c(=O)n(CCC(=O)O)c(=O)n(CCC(=O)O)c1=O
    5	-6	-17	6	1.9	4278	1
> C=CCOC(=O)C1=C(C)NC(=O)NC1c1ccc(Cl)cc1 (stereo not given)
    4	0	3	1	4.2	4236	1

(listing goes on)
| structure | Mtb hypoxia inh | Mtb hypoxia inh growth | PrP 5UTR inh | ugtP null kill | Sa RN4220 lethal | Bead autofluor | BJeLR viability |
| --- | --- | --- | --- | --- | --- | --- | --- |
| COc1cc(-c2ccc3c(=O)c4ccccc4sc3c2)cc(OC)c1OC | 1 | 7 | -26 | -12 | 12 | 2814 | · |
| O=C(NNC(=O)c1ccc2c(c1)OCO2)NC1CCCCC1 | 5 | 9 | -10 | -6 | -21 | 3118 | -4 |
| CC(C)CN(C(=O)c1ccc(N2CCCC2=O)cc1)C1CCS(=O)(=O)C1 (stereo not given) | 10 | 0 | -16 | 6 | 2.6 | 6094 | -7 |
| CCCC1(C(=O)OCC)NC(c2ccc(N(C)C)cc2)C2C(=O)N(c3ccc4c(c3)OCCO4)C(=O)C21 (stereo not given) | · | · | -18 | -2 | -3.9 | 2468 | 7 |
| Oc1c(Br)cc(Br)cc1CNc1cccc2cccnc12 | 10 | -4 | -25 | -2 | 21 | 3875 | 6 |
| CCOC(=O)c1c(C)[nH]c(C)c1C(=O)CSc1ncccn1 | 3 | 10 | -21 | -3 | 1.4 | 21577* | 0 |
| NS(=O)(=O)c1ccc(CNS(=O)(=O)c2cccc3nonc23)cc1 | -12 | 2 | · | 0 | 2.8 | · | -11 |
| COC(=O)c1sc(=S)n(-c2ccc(Cl)cc2)c1C | · | · | -10 | 3 | 6.8 | 2881 | 5 |

Quoted from the listing:
PrP 5UTR inh with CC(C)CN(C(=O)c1ccc(N2CCCC2=O)cc1)C1CCS(=O)(=O)C1 (stereo not given) → -16
ugtP null kill with COC(=O)c1sc(=S)n(-c2ccc(Cl)cc2)c1C → 3

New compounds follow
| structure | Mtb hypoxia inh | Mtb hypoxia inh growth | PrP 5UTR inh | ugtP null kill | Sa RN4220 lethal | Bead autofluor | BJeLR viability |
| --- | --- | --- | --- | --- | --- | --- | --- |
| O=[N+]([O-])c1cc(S(=O)(=O)Nc2ccccc2)ccc1NCc1cccnc1 | 3 | 8 | -7 | -7 | 3.2 | 2462 | 8 |
| C=C1CCN([C@@H](C)C(=O)NCc2ccc(Cl)cc2)S(=O)(=O)c2ccccc21 | · | · | -13 | · | · | 3032 | -1 |
| CCC(C)NC(=O)CCCCCn1c(=O)[nH]c2cc(OC)c(OC)cc2c1=O (stereo not given) | 16 | 10 | -19 | -8 | 3.9 | 9317 | -12 |
| CN(CC(=O)Nc1ccc(F)cc1)C(=O)COC(=O)CNC(=O)c1ccc(Cl)cc1Cl | -4 | -4 | -17 | 2 | 2.8 | · | 1 |
| CC(C)NC(C)C(=O)C12CC3CC(CC(C3)C1)C2 (stereo not given) | -5 | 14 | -33 | -10 | -1.9 | 2556 | 6 |
| Cc1ccccc1S(=O)(=O)N=C(c1ccccc1)N1CCOCC1 | 1 | -1 | · | -1 | 7.0 | · | · |
| CCOC(=O)C1=C(CSc2nc3c(cc2C#N)CN(C)CC3)OC(N)=C(C#N)C1c1ccc(Cl)cc1 (stereo not given) | · | · | -22 | 2 | 6.2 | 2633 | -3 |
| Cc1ccc(-n2ncc(C(=O)NCC3CCN(C4CCCC4)C3)c2C2CCN(C(=O)OC(C)(C)C)CC2)cc1 (stereo not given) | -19 | -10 | 1 | 9 | 4.8 | 4081 | 6 |
| COC(=O)C1=C(c2ccc(-c3ccccc3)c(F)c2)CC2CCC1N2C(=O)NCCCOC(C)C (stereo not given) | -6 | 4 | · | -18 | 6.8 | · | · |
| COc1ccccc1N(C)S(=O)(=O)c1ccc(C(=O)NCC2CCCCC2)cc1 | 10 | 7 | -14 | 0 | 2.7 | 3675 | · |
| O=C1/C(=C/c2ccccc2)SC(=S)N1C1CCS(=O)(=O)C1 (stereo not given) | 6 | 12 | -9 | 2 | 1.4 | 6643 | 6 |
| Cc1ccc(-n2c(SCC(=O)O)nc3sc4c(c3c2=O)C(C)CCC4)cc1 (stereo not given) | -8 | -9 | -4 | 2 | 6.5 | 2984 | -1 |
| COc1ccc(N2C(=O)c3ccccc3S2(=O)=O)cc1 | 10 | 15 | -43 | 7 | 4.1 | 4249 | 6 |
| COc1ccc(OCC(=O)OCCNC(=O)c2cccnc2)cc1 | 2 | 6 | 1 | 4 | 3.0 | 1927 | -9 |
| COc1ccc2c(c1)C(=O)N(c1ccccc1C)C(=O)C2(C)C | 4 | 1 | -5 | 12 | 4.2 | 2685 | 7 |
| O=C(CCC(=O)c1ccc(F)cc1)NCC1(N2CCCCC2)CCCCC1 | 5 | 0 | 16 | 7 | 3.7 | 7168 | · |
| CCn1c2ccccc2c2cc(CN3CCN(C(=O)c4ccco4)CC3)ccc21 | · | · | -18 | -20 | 8.6 | 4937 | -3 |
| COc1ccccc1C(=O)COC(=O)c1cccc(-n2cnnn2)c1 | 0 | 1 | -9 | 6 | 2.5 | 7526 | · |
| O=C(Nc1ccccc1)c1sc(N2CCOCC2)nc1-c1ccccc1 | -5 | 5 | 3 | 5 | 4.4 | 2212 | 10 |
| Cc1ccc(C2(C)NC(=O)N(CC(=O)Nc3cc(S(=O)(=O)N4CCOCC4)ccc3OC(C)C)C2=O)cc1 (stereo not given) | -4 | 11 | 2 | 3 | 3.9 | 4200 | · |
| CC(c1ccc(F)cc1)n1c(-c2ccc3ccccc3n2)n[nH]c1=S (stereo not given) | 12 | 2 | -4 | 10 | 3.7 | 7443 | -4 |
| OC(COC(c1ccc(F)cc1)c1ccc(F)cc1)CN1CCCC(C(F)(F)F)C1 (stereo not given) | 1 | 5 | 3 | 3 | -2.4 | 3835 | 2 |
| Cc1ccc(NCC(=O)N/N=C/c2cc(O)ccc2[N+](=O)[O-])cc1 | · | · | -75 | · | · | 3781 | 0 |
| Brc1ccc2ncnc(Nc3cccc4ccccc34)c2c1 | -7 | 8 | -16 | -20 | 12 | 7640 | 3 |
| O=C(Oc1ccc(C(=S)N2CCOCC2)cc1Br)c1cc(Cl)ccc1Cl | -17 | -2 | -18 | -4 | -3.7 | 10198 | 0 |
| Cc1ccc(NC(=O)c2ccc(OC(F)F)cc2)cc1S(=O)(=O)N(C)C | 6 | 4 | -30 | -4 | 3.8 | 2521 | 0 |
| CCN(CC)c1ccc(/C=N/NC(=O)c2c(Cl)c(C)nn2C)cc1 | · | · | -28 | · | · | 8765 | -7 |
| Cc1[nH]c2ccccc2c1C(Nc1nccs1)c1ccncc1 (stereo not given) | 3 | 11 | -23 | 2 | 2.7 | 2193 | -24 |
| O=S(=O)(Nc1cc(C(F)(F)F)ccc1N1CCOCC1)c1ccccc1 | -6 | 3 | -8 | -2 | 8.1 | · | -2 |
| CN(C(=O)c1ccc([N+](=O)[O-])cc1)c1ccccc1C(=O)NCc1ccccc1 | -9 | 6 | -7 | -5 | -4.1 | 5695 | -20 |
| CC(=O)Nc1ccc(N2CCCC2)cc1 | 3 | -7 | -26 | -9 | 6.6 | 2234 | -2 |
| Cc1c(NC(=O)CN2c3ccccc3CC2C)c(=O)n(-c2ccccc2)n1C (stereo not given) | -3 | 5 | 9 | 1 | 2.2 | 4657 | 6 |
| C/C(Cn1cnc([N+](=O)[O-])n1)=N\NC(=O)c1ccncc1 | · | · | -4 | · | · | 2363 | -2 |
| COc1cc(OC)c(NC(=O)/C=C/C(=O)O)cc1Cl | 6 | -2 | -16 | 5 | -0.2 | 5884 | 15 |
| N/C(=N\OCc1ccc([N+](=O)[O-])cc1)c1ccncc1 | · | · | -43 | · | · | 3838 | -3 |
| O=C1CCC(=O)N1CCSC(=S)N1CCSCC1 | 1 | 18 | -27 | -2 | -3.5 | 4412 | -7 |
| COc1ccc(C(=O)NCCn2ccc3ccccc32)cc1 | · | · | -77 | 11 | 0.5 | 9335 | -5 |
| Cc1ccc(NC(=O)c2ccc(NC(=O)c3ccccc3)cc2)cc1C | 16 | 9 | -10 | -1 | 0.9 | 6026 | 10 |
| Cc1ccc(/C=N/NC(=O)CSc2ccccn2)o1 | · | · | -1 | · | · | 6057 | 1 |
| CCOC(=O)N1CCN(S(=O)(=O)c2ccc(C(=O)N(CCCN(C)C)c3nc4cc(OC)ccc4s3)cc2)CC1 | 8 | 16 | -21 | 6 | 2.3 | 5639 | 0 |

High-throughput results as filed in PubChem.
